Bioassay records deposited in PubChem BioAssay by National Center for Advancing Translational Sciences (NCATS).
ClpP mod: qHTS Assay for Activators of ClpP; Potency, µM (doses to about 57.5 µM), inactives show top-dose activity change, negative = active; purified B. subtilis ClpP, FRET peptide cleavage, 20 min; ATP-dependent Clp protease proteolytic subunit (Bacillus subtilis (strain 168)), P80244; 1.9% of 340,000 active; active = well fitted falling curve with a large enough effect; inconclusive = small, poorly fitted or top-dose-only effect; inactive = no such curve, though single readings can be large or run the other way; note: potency is the fitted concentration of half-maximal effect; the source files actives as falling curves though it sought activators and does not explain the sign; nearly all actives have a fitted effect of over 65% in size; many hits overshoot -100%
Target sequence (P80244 whole entry, looked up): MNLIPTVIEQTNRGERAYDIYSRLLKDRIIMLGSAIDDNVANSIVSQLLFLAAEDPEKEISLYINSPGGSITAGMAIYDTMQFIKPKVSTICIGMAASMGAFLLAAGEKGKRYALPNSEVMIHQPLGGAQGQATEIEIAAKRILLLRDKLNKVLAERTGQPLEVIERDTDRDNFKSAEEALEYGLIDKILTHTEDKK
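FRET quenching reversal measured ClpP activation: 10 microg/mL B. subtilis ClpP at pH 8 with the FRET-FV decapeptide, read at 430 nm after 320 nm excitation. The 20-min minus 0-min signal was scaled between DMSO/no-enzyme wells and ADEP (5.8 microM final).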
D2 ag: human D2 receptor agonism in beta-arrestin assay; DiscoveRx PathHunter D2 beta-arrestin, luminescence, 90 min; 100% = 57 uM dopamine signal; activation, % (concentration not given with the values); 0.084% of 360,000 active; in the data active = activation above about 40%; inconclusive = about 15% to 40%; inactive = below about 15%; note: compound concentration not given in the record; the text of the record calls up to 30% inactive
Target sequence (P14416 whole entry, looked up): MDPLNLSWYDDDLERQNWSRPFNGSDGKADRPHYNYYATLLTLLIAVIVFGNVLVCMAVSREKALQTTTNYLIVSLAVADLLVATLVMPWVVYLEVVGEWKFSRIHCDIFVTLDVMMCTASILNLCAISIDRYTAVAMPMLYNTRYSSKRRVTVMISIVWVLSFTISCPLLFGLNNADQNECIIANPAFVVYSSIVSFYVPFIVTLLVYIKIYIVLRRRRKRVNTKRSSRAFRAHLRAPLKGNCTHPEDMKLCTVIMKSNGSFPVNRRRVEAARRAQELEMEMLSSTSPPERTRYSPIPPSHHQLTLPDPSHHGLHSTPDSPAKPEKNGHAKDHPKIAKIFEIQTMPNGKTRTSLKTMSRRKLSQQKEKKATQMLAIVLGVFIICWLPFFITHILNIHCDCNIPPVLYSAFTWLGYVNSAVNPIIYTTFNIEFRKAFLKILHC
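DiscoveRx PathHunter D2 beta-arrestin cells (2,100/well) attached overnight, then compound-stimulated 90 min at 37 C in HBSS/10 mM HEPES/0.1% Tween-20 buffer; beta-galactosidase complementation read by luminescence after 1 h at ambient temperature. Dopamine 57 uM final (EC100) as control.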
Sfp inh: inhibitors of Bacillus subtilis Sfp phosphopantetheinyl transferase; Q9F4F7; Potency, µM, for inactives: max response, negative = inhibition, most hits filed as inhibitors; Biochemical Sfp PPTase activity, qHTS; 3.5% of 310,000 active; AID 1490; active = well fitted inhibition curve with a large enough effect; inconclusive = small, poorly fitted or top-dose-only effect, or another doubt; inactive = no such curve, though single readings can be large or run the other way;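 note: the enzyme is Sfp with the accession as filed and its product quenches rhodamine fluorescence; potency is the fitted concentration of half-maximal effect; 0% = enzyme reaction without inhibitor and -100% = no enzyme wells; top concentration of the series not given in the record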
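Reaction rates are the 30-min fluorescence difference (ex 525, em 598 nm) in wells containing 15 nM Sfp, 5 uM rhodamine-CoA and 12.5 uM BHQ-2-YbbR at pH 7.6 with 10 mM MgCl2.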
gsp agonist: agonists of gsp mutant (McCune-Albright syndrome); gsp mutant cells, cAMP HTRF, 30 min; control for the full effect not named in the record; Potency, µM (top dose mostly 76.9 µM), inactives show at the top dose activation (cAMP increase), hits mostly activators; 0.13% of 340,000 active; active = well fitted activation curve with a large enough effect; inconclusive = small, poorly fitted or top-dose-only effect, or another doubt; inactive = no such curve, though single readings can be large or run the other way; cell line not stated here;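 note: phosphodiesterase inhibitor Ro 20-1724 added with compounds to block cAMP breakdown; potency is the fitted concentration of half-maximal effect; nearly all actives have a fitted effect of over 60% in size; about a fifth of the inactives were tested at one dose only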
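Cells in DMEM/10% FBS with G418 were pretreated with compounds in DMSO plus […] (300 uM stock) for 30 min at 37C. cAMP was measured by HTRF (cAMP-d2 plus anti-cAMP antibody-K) after 30 min at room temperature.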
gsp antag: antagonists of gsp mutant (McCune-Albright syndrome); gsp-mutant cells, cAMP HTRF, 30 min; control for the full effect not named in the record; Potency, µM (titrated, usually from 76.9 µM), without a hit: top-dose activity change, negative = inhibition, actives largely listed as inhibitors; 0.4% of 340,000 active; AID 624288; active = falling curve of any shape with a large fitted effect; inconclusive = falling curve, mostly with a smaller effect; inactive = flat or rising curve; cell line not stated here;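 note: intracellular cAMP measured with PDE inhibitor Ro 20-1724 present during compound exposure; potency is the fitted concentration of half-maximal effect; % is set by controls: 0 for no effect and ±100 for the full control effect; nearly all actives have a fitted effect of over 65% in size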
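Cells, 2000/well, grown 16–24 h in DMEM 10% FBS with 0.5 mg/ml G418, then compounds plus […] (300 uM addition stock), 30 min at 37C. cAMP read by HTRF (cAMP-d2 and anti-cAMP antibody-K in lysis buffer) after 30 min RT.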
PINK1 modulator: PINK1 expression modulation; PINK1 immunofluorescence, high-content cytometry, 24 h; Potency, µM (series often up to 76.6 µM), without a hit: at the highest dose activation (PINK1 increase), usual class: activators; 0.2% of 410,000 active; AID 624263; active = well fitted activation curve with a large enough effect; inconclusive = small, poorly fitted or top-dose-only effect; inactive = flat fitted curve, though single readings scatter; cell line not stated here;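 note: potency is the fitted concentration of half-maximal effect; % of control where 0% means no effect; nearly all actives have a fitted effect of over 65% in size; a mitochondrial uncoupler was the plate control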
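Decision-based qHTS: stable cells, 24 h exposure to five compound concentrations, CCCP as control. Fixed cells stained for PINK1 plus nuclear, mitochondrial and cell markers, cytometer read.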
Menin-MLL FL inh: inhibitors of human menin-MLL interaction, wild-type MLL peptide. Fluorescence polarization, fluorescein-MLL peptide displacement from menin. FP activity change, % at 61.4 µM. 290,000 tested, under 10 active. AID 1766; inconclusive = falling polarisation curve, or a change in total fluorescence; inactive = total fluorescence flat and polarisation flat or rising; no compound was filed as active; the % refers to the polarisation; negative = inhibition;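 note: % of control where 0% means no effect; inhibitors lower the polarisation; unlabelled MLL peptide was the positive control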
* = called active by the depositor; u = inconclusive; x = no result given; & = joins results of further samples; [ ] = another dose, or the depositor's remark.

Molecule | ClpP mod | D2 ag | Sfp inh | gsp agonist | gsp antag | PINK1 modulator | Menin-MLL FL inh
CC(C)(C)NS(=O)(=O)c1ccc(NC(=O)C2CC(=O)N(CCc3ccc(F)cc3)C2)cc1 (stereo unspecified) | -2.9% | -1.8 | -3% | 17%[15.4 µM] | -7% | 1.3% | -4.3
CCOc1cccc2sc(N(CCN(CC)CC)C(=O)c3ccc(S(=O)(=O)N4CCCC4)cc3)nc12 | 1.1% | -0.1 | 19% | -15% | -4% | 1.6% | -0.2
Cc1ccc2c([N+](=O)[O-])cccc2n1 | -3.1% | 1.2 | 3% | 19% | 6% | 2.0% | 0.4
O=C(c1c(Cl)nc2sccn12)N(C(=O)c1c(Cl)nc2sccn12)c1ccc(Cl)cn1 | -14% | 0.2 | -5% | -27% | -2% | -6.6%[38.3 µM] | -0.9
Cc1c(N=C/C=C2/N(C)c3ccccc3C2(C)C)c(=O)n(-c2ccccc2)n1C | 1.4%&1.7% | -1.5&-2.3 | 7% | 7%&9% | 12%&14% | -0.5%&-0.6% | 16
Cc1cc(Cl)c(OCCn2ccnc2)c(Br)c1 | -0.3% | -1.7 | u | -4% | 0% | 3.7% | -5.0
Cc1ccc(CS(=O)Cc2ccc(C(=O)NCC(C)c3ccccc3)o2)cc1 (stereo unspecified) | 1.8% | 1.8 | 17% | 15% | -10% | -0.8% | x
COc1ccc(CNC(=O)C2CCCN(c3ncnc4c3nc3n4CCCCC3)C2)cc1 (stereo unspecified) | -0.8% | -8.0 | 21% | -6% | -2% | 0.8% | 1.2
O=C(/C=C/NCc1cccnc1)c1ccc(Br)cc1 | 0.9% | -1.6 | x | -2%[15.4 µM] | -3% | 0.1% | x
Cn1c(=O)c2c(SCC(=O)Nc3nccs3)nc(C3CC3)nc2n(C)c1=O | x | 0.7 | -19% | -6%[15.4 µM] | 3% | 12% | 3.6
N#C/C(=C\c1ccccc1C(F)(F)F)C(=O)Nc1ccccc1 | 0.5% | 1.1 | 20% | -6% | 5% | 18% | 11
Oc1c(Br)cc(Br)cc1C=Nc1cccnc1 | -0.1% | -5.5 | -5% | 26% | u | 1.1% | 13
C/C(=N\NC(=O)c1ccccc1C)c1ccc(N2CCOCC2)cc1 | -6.6% | -4.2 | 4% | 6% | 3% | -1.1% | 0.1
Cc1sc2ncnc(Sc3nnnn3-c3ccc(Cl)cc3)c2c1C | u | -2.2 | -6% | u | 6% | -3.8% | 3.9
Cc1cccc(NC(=O)CN2CCN(C(=O)C3CCC3)CC2)c1C | -3.0% | -4.1 | x | 8%[15.4 µM] | -3% | 1.4% | x
CCc1ccc(/C=N/Nc2nn[nH]n2)cc1 | -1.1% | -3.3 | 5% | 6% | -12% | 9.8% | 2.5
CCC(c1nnnn1C1CCCC1)N1CCN(C(=O)c2ccco2)CC1 (stereo unspecified) | -2.7% | -2.1 | 7% | u | 2% | 0.7% | -7.8
CCC1CCCCN1S(=O)(=O)c1ccc(NC(=O)c2snnc2C)cc1 (stereo unspecified) | -1.1% | 4.3 | -5% | 20% | -3% | 1.3% | x
NC(=O)C1CCC(NC(=O)OCc2ccccc2)CC1 (stereo unspecified) | 0.8% | -4.0 | 3% | -6% | 5% | 1.9% | -3.2
CC1CCCCC1NC(=O)c1cccc(S(=O)(=O)N2CCN(Cc3ccccc3)CC2)c1 (stereo unspecified) | -0.9% | 0.7 | x | -29% | -7% | 1.6% | x
Cc1ccc(OCC(O)Cn2c(N3CCOCC3)nc3c2c(=O)[nH]c(=O)n3C)cc1 (stereo unspecified) | 0.7% | -1.9 | 10% | u | 2% | 1.9% | 0.5
COC(=O)c1ccc(Cn2nc(-c3cc(C)ccc3C)ccc2=O)cc1 | x | 2.2 | -23% | -13% | -11% | 3.7% | 2.7
NC(=O)[C@@H]1CCCN1Cc1nc(-c2ccc(C(F)(F)F)cc2)no1 | 0.4% | -0.1 | 10% | 9% | -3% | 0.3% | -0.3
Cc1ccc(C)c(S(=O)(=O)N2C(=S)NC(=O)C2CC(C)C)c1 (stereo unspecified) | 2.0% | -4.0 | 12% | -16% | -16% | 0.9% | 3.6
Cc1cccc(CN(C)C[C@@H]2OCc3cnnn3CCCC(=O)N([C@@H](C)CO)C[C@H]2C)c1 | 2.0% | -8.8 | x | 5% | x | 0.7% | x
O=S(=O)(c1ccc(Cl)cc1)N1CN(CC2CCCO2)c2nc3ccccc3nc21 (stereo unspecified) | -29% | 5.0 | 3% | u | u | 0.5% | -0.4
C[C@@H](NC(=O)c1[nH]cnc1C(=O)Nc1ccccc1F)c1ccccc1 | -16% | -7.2 | x | -61%[inhibitor] | x | 4.9% | x
O=C(O)CCCC(=O)Nc1ccc(S(=O)(=O)Nc2nccs2)cc1 | 0.9% | -1.5 | 4% | -2%[15.4 µM] | -2% | -1.4% | 5.8
CCOC(=O)C1=C(C)N[C@@]2(O)c3ccccc3C(=O)[C@@]12O | -0.5% | -5.7 | u | -22% | -1% | 1.5% | 2.2
Cn1cc(C(=O)NCc2cccs2)c(=O)c2cc(S(=O)(=O)N3CCCC3)ccc21 | 3.4% | -0.2 | 5% | -67%[inhibitor] | u | u | 1.8
CC(Oc1ccc(C(=O)c2ccc(F)cc2)cc1)C(=O)N1CCOCC1 (stereo unspecified) | 1.1% | -5.3 | x | 0%[15.4 µM] | 1% | 0.4% | x
CC(C)(C)c1ccc(S(=O)(=O)CCc2ccccn2)cc1 | -1.5% | 2.0 | -2% | 3% | -6% | -0.1% | -3.0
CCC(=O)N1CCN(CCN=CC2=C(O)CC(c3ccc(OC)cc3)CC2=O)CC1 (stereo unspecified) | -2.2% | -0.1 | 5% | -62% | -2% | 0.9% | 0.5
Cc1cc(OC(=O)Cc2cccc3ccccc23)c([N+](=O)[O-])c(=O)[nH]1 | 1.6% | -3.4 | 7% | 7% | 7% | 2.4% | 2.5
CC1CCN(S(=O)(=O)c2ccc3c(ccn3CCC(=O)N3CCCCC3)c2)CC1 | -4.6% | -2.1 | 0% | 5% | -4% | -0.4% | -2.2
COc1ccccc1/C=C(\NC(=O)c1ccc(OC)c(OC)c1)C(=O)Nc1cc([N+](=O)[O-])ccc1C | -0.7% | -3.6 | 14% | 7% | 3% | -2.2% | 0.9
CC(C)(C)c1ccc(OCCCC(=O)Nc2nnc(C3CC3)s2)cc1 | -3.2% | 0.8 | x | -1% | x | 8.9% | x
COc1ccc(-c2nn(CCC#N)cc2/C=N/O)cc1OC | x | -2.9 | -19% | 4%[15.4 µM] | 18% | -0.4% | 3.6
CCNS(=O)(=O)c1ccc(CCC(=O)NCc2ccc(C)cc2)cc1 | x | -4.4 | 8% | 2%[15.4 µM] | 1% | -1.0% | -4.4
Cc1ccc(CNC(=O)CCc2ccc(S(=O)(=O)NC3CCCCC3)cc2)cc1 | -1.1% | 0.2 | 8% | 9% | -6% | -1.0% | 1.7
COc1ccc(C(=O)Nc2ccccc2N2CCOCC2)cc1[N+](=O)[O-] | 1.4% | -1.6 | -10% | 15% | -12% | 1.3% | -1.6
O=C(CCN1CCCCCC1)Nc1ccccc1F | 0.7% | -0.7 | x | -20% | 5% | -0.7% | x
CSCCC(NC(=O)c1ccoc1C)C(=O)O (stereo unspecified) | 0.3% | -0.5 | 6% | -21% | 1% | x | -2.0
O=C(CCNC(=O)c1ccc(Cl)cc1)Nc1ncccc1O | -2.2% | 2.0 | 3% | -21% | 5% | 0.6% | x
O=C(Nc1ccccc1)c1ccc(F)c(S(=O)(=O)N2CCOCC2)c1 | -1.3% | -1.2 | -2% | 4% | -30% | -1.6% | 4.6
Cc1ccc(OCc2nnc(SCC(=O)Nc3ncc(C)s3)o2)cc1 | 0.4% | -3.5 | 13% | -15%[15.4 µM] | -26% | -0.4% | -2.3
Cc1cc(C)c(S(=O)(=O)/N=C2/C=C(Sc3ncn[nH]3)C(=O)c3ccccc32)cc1C | 11% | u | 1µM* | 10% | u | 1.4% | u
COc1cc(-c2nnc(-c3ccco3)o2)ccc1OCc1ccccc1 | u | 0.9 | 0% | -1% | u | 9.8%[38.3 µM] | 1.9
C/C(=N\Nc1ccccc1C)c1cccnc1 | 0.5% | -1.0 | 3% | 0%[15.4 µM] | 11% | 0.3% | -0.3
CC[C@]12c3[nH]c4cc(-c5ccco5)ccc4c3CCN1C(=O)[C@@H](CC(=O)NCCC1=CCCCC1)C[C@@H]2C(=O)N1CCN(C(=O)C2CC2)CC1 | 3.7% | -3.0 | x | x | -25% | 2.2% | x
COCCN(Cc1cc2cccc(C)c2[nH]c1=O)C(=O)c1ccccc1 | -25% | -1.5 | 13% | 13% | 1% | -2.4% | -1.2
COCCCNC(=O)CC(NS(=O)(=O)c1ccc(Cl)cc1)c1ccc(OC)cc1 (stereo unspecified) | 0.6% | -1.8 | 4% | -19% | -4% | x | -2.3
Cc1ccc(S(=O)(=O)Cn2nnnc2C(C(C)C)N2CCN(C(=O)c3ccco3)CC2)cc1 (stereo unspecified) | -1.3% | -3.2 | x | -19% | 7% | 1.7% | x
COc1ccc(/C=C/C(=O)O/N=C(\N)c2cccnc2)cc1OC | -15% | 5.5 | -2% | 13% | 0% | 0.2% | -1.5
CCC1=Nc2cc(C(=O)NCCN3CCOCC3)ccc2Sc2ccc(Br)cc21 | -1.9% | 1.2 | -14% | 5% | -6% | -2.3% | -2.9
COC(=O)CCc1c(C)[nH]c(=S)[nH]c1=O | -3.4% | -0.9 | 89µM* | 6% | 9% | -0.5% | 0.1
Cc1ccc(C(=O)CSc2nsc(C)c2C#N)cc1 | -2.2% | -2.5 | 20µM* | u | u | -0.5% | -0.5
COc1ccc(OC)c(N=Nc2c(O)c3ccccc3[nH]c2=O)c1 | x | -0.8 | x | 17% | -24% | 0.5% | x
Cc1ncc(S(=O)(=O)c2ccc(Cl)cc2)c(-c2ccccc2)n1 | -2.2% | -8.6 | 13% | 0% | -5% | -1.7% | 0.4
